Compound activity as filed in PubChem.
Tgondii IFNg = T. gondii growth inhibition under IFN-gamma; 69,000 compounds, 3.8% hits; Toxoplasma gondii growth in IFN-gamma-treated host cells; hits give low values; reference of the scale not given here; activity change, negative = inhibition, %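 (about 20 µM by stock and volumes)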;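 active = below -70%; inconclusive = fit judged invalid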;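 note: host cells are HeLa cells infected with Toxoplasma gondii; parasite growth read as luciferase light; one replicate is shown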
Active calls of the source: *; u = inconclusive. Not all compounds are listed; the hit share may differ from the screen's.

SMILES	Tgondii IFNg
O=C(C[C@@H]1CC[C@@H]2NC[C@@H](O)COC[C@H]2O1)N1CCc2ccccc2C1	10.2
O=C(NCCCN1CCCCC1)C1CN(S(=O)(=O)c2cccnc2)CC12CCCCC2 (stereo not given)	153.3
COc1ccc(C(=O)N(C2CCCC2)C2(C(=O)NCc3ccccc3)CCN(C(C)=O)CC2)cc1	-0.5
COCC(=O)N1CC2(C1)CN(Cc1nccs1)[C@@H](CO)c1c2c2ccc(OC)cc2n1C	27.1
CC(C)c1nnc(CN2CCCC3(CC2)CN(C)C(=O)O3)o1 (stereo not given)	9.2
Cc1ccc(C)c(CNC(=O)c2ccc(-c3nc(CN4CCN(c5ccccc5)CC4)c(C)o3)cc2)c1	-79.4*
COCCNC(=O)[C@H]1CC[C@H]2[C@H](CCN2C2CCOCC2)O1	111.4
COc1cccc(C(=O)Nc2ccc3c(c2)C(=O)N(C)[C@@H]2CC[C@H](CC(=O)N[C@H](C)c4ccccc4)O[C@H]2CO3)c1	-36.9
O=c1[nH]c2cc(F)ccc2c(O)c1-c1nc(-c2ccc(F)cc2)no1	38.3
COc1cc(N2CCC3O[C@@H](C(=O)NCCN(C)C)CC32)ncn1 (stereo not given in full)	11.2
CCn1c(C2CCN(Cc3coc4ccc(C)cc4c3=O)CC2)nn(C)c1=O	3.6
CCCc1c(O)ccc2c(=O)cc(C(=O)OC)sc12	-18.0
COCCN1C(=O)CCc2cc(NS(=O)(=O)c3ccc(OC)cc3)ccc21	-6.5
O=C1CCCN1CC1CN(C(=O)c2ccsc2)Cc2nccn2C1 (stereo not given)	-34.8
COCCN1C(=O)C[C@H]2[C@H]1CCN2S(=O)(=O)c1ccc(F)cc1	-13.3
CCN1CCC2(CC1)OC(=O)C(C)=C2C(=O)NCc1ccccc1F	6.8
O=C(COCc1nnn2c1CNCCC2)N1CCCC1	0.8
COc1ccc(NC(=O)CN2C(=O)CCc3cc(Br)ccc32)c(OC)c1	219.5
COc1ccc(-c2cc(-c3c(O)ccc4ccccc34)[nH]n2)cc1OC	44.6
Cc1cc(F)ccc1NC(=O)Cn1ncc2c(N3CCN(c4ccccc4)CC3)ncnc21	13.0
C=CCNc1ccccc1C(=O)NCc1c(C)n[nH]c1C	77.1
Cc1onc(-c2c(Cl)cccc2Cl)c1-c1nc2cccc(F)c2c(=O)o1	-34.9
CN1CCC2(CC1)CN(C(=O)c1ccc(Cn3cnnn3)cc1)CCN2C	0.4
CCO[C@H]1CNC[C@@H]1NC(=O)c1cc(CN2CCCC2)c(CC)o1	-10.5
CCS(=O)(=O)N1CCc2cc(C(=O)N3CCCC3)c(NC(C)C)nc2CC1	-1.2
Further compounds:
SMILES	Tgondii IFNg
COc1cccc(N2CCc3c(C)c(C#N)c4nc5ccccc5n4c32)c1	64.5
O=C(CCc1cccnc1)N1CCC2(CN(Cc3cccc(Cl)c3)C2)C1	15.7
Cn1nc(-c2ccc(S(N)(=O)=O)s2)cc1C(F)(F)F	23.5
CC(=O)N1CC2(CCN(C(=O)CC3SC(=O)N(C)C3=O)CC2)Nc2ccccc21 (stereo not given)	7.5
COCC1CN(C(=O)[C@H]2CCCO2)Cc2nnn(CC3CC3)c21 (stereo not given in full)	2.6
O=C1CSC(=O)N1CCS(=O)(=O)c1ccc(Cl)cc1	-1.5
CC(=O)N[C@@H]1C[C@H](Cc2ccccc2)O[C@H](c2c(Cl)nc3sccn23)C1	-2.4
CCCC(OC(=O)CC1Sc2ccccc2NC1=O)C(=O)NCc1ccco1 (stereo not given)	15.3
Nc1ccc(-c2cc3ccccc3oc2=O)cc1	15.0
CN(Cc1n[nH]c2c1CCCC2)c1ccc(-c2nccn2C)nn1	u
CCCN1C(=O)CCc2cc(NC(=O)/C=C/c3ccc(C)cc3)ccc21	-69.8
Cc1ncsc1C(=O)N[C@H](Cn1nnc2ccccc21)C(C)C	8.1
O=C(CCC1CCCC1)N1CCc2c([nH]c3ccccc23)C1c1cccnc1 (stereo not given)	103.9
CC(C)n1cnc(-c2cc(C(=O)NCC3CCCO3)c3ccccn23)c1 (stereo not given)	-0.2
CC(C)(C)C1CCC(CC2C(=O)C(=O)c3ccccc3C2=O)CC1 (stereo not given)	-86.3*
C[C@H]1CN([C@@H](C)CO)C(=O)c2cccc(NC(=O)c3nc4ccccc4s3)c2O[C@@H]1CN(C)C(=O)Nc1ccc2c(c1)OCO2	11.7
CCCC1CCC2(C)c3[nH]c4ccccc4c3CCCN2C1 (stereo not given)	-13.5
Cc1nc(C)c(-c2cnc(NS(=O)(=O)c3ccc(Cl)cc3)nc2)s1	-45.2
CCNC(=O)C1CCN(C(=O)c2cc(CN(C)Cc3ccccc3)on2)C1 (stereo not given)	7.3
CN=c1nc(-c2ccccc2)n(-c2ccccc2)s1	61.9
CCn1ncc(S(=O)(=O)NCC2(c3ccccc3)CCOCC2)c1C	-65.1
CCn1c(C2CCCN(C(=O)CCn3nnc4ccccc43)C2)nn(C)c1=O (stereo not given)	-49.5
CCN1CCC2(CN(CC(C)C)CC23CCN(C(=O)Cc2ccsc2)CC3)C1=O (stereo not given)	7.3
Cc1cc(C)c(S(=O)(=O)NCCCn2ccnc2)c(C)c1	-35.8
C/C=C/c1ccc([C@@H]2[C@H](CO)N(C(=O)CN(C)C)C23CN(C(=O)C2CCOCC2)C3)cc1	-41.9
Carrying on:
SMILES	Tgondii IFNg
CN(C)C1CCN(C(=O)c2cnc(-c3noc4cc(-c5ccccc5)ccc34)s2)CC1	-12.1
Cc1ccc(C)c(NC(=O)Cn2ncc3c(N4CCOCC4)ncnc32)c1	113.0
CS(=O)(=O)N(CC(=O)NCc1ccco1)C1CCCCC1	6.1
COc1ccc(-c2cc(C(=O)O)cc(S(=O)(=O)N3CCCC3)c2)cc1F	35.8
C=CCn1c(=O)c(-c2nc(-c3ccccc3OCC)no2)c(O)c2ccccc21	25.1
O=C(C[C@@H]1CC[C@H]2NC[C@@H](O)COC[C@@H]2O1)N1CCc2ccccc2C1	43.3
CCOc1ccc(NC(=O)N2CCC(c3nc(C(=O)N(C)C)c(C)o3)CC2)cc1	66.9
COCC(=O)N1CCC2(c3ccccc3)CN(Cc3cccnc3)CC2C1 (stereo not given)	-6.3
O=c1oc2c3c4c(cc2cc1-c1nnc(Nc2ccccc2)s1)CCCN4CCC3	5.7
COCC1CN(C(=O)c2ccncc2F)Cc2nccn2C1 (stereo not given)	-2.0
O=C(CC1CC1)N1[C@@H](CO)[C@@H]2c3ccccc3N(S(=O)(=O)c3ccccc3F)C[C@@H]21	-3.9
O=C(c1c(F)cccc1F)N1CCOC(c2ccc(Cl)cc2)C1 (stereo not given)	-78.7*
CCn1c(CN2c3ccccc3Sc3ccccc32)n[nH]c1=S	-29.7
COc1ccc(OC)c(Nc2nc(-c3nnc(-c4ccc(C)cc4)o3)nc3ccccc23)c1	-56.4
O=C(Nc1cnc2n1CCCC2)c1ccccc1-c1ncc[nH]1	-46.2
Cc1ccc(NC(=O)COc2nc(C)nc3ccccc23)c(Cl)c1	-2.2
O=C(NCCc1csc(-c2ccccc2)n1)[C@H]1CSCN1S(=O)(=O)Cc1ccccc1	-45.3
Cc1c(-c2cc(C(=O)NC(c3ccc(F)cc3)c3nccn3C)on2)cnn1C (stereo not given)	-6.6
COCCN(C)CC1COC2(CCCN(C(=O)c3ccc4ccccc4n3)C2)C1 (stereo not given)	0.5
Cc1ccccc1CC(=O)Nc1ccc(-c2nc(-c3ccccc3)co2)cc1	-38.7
COc1ccc(-c2nnc(-c3sc4ccccc4c3Cl)o2)cc1	19.9
CC(C)C(=O)N1Cc2ccccc2C2(CCN(Cc3cnn(C)c3)CC2)C1	-6.6
Cc1cccc(S(=O)(=O)N2[C@@H]3Cn4c(cccc4=O)[C@H]2[C@@H](C(=O)N(C)C)[C@@H]3CO)c1	5.5
Cc1ccccc1-c1ccc2c(c1)O[C@@H](CN(C)C(=O)Nc1ccc(C(F)(F)F)cc1)[C@@H](C)CN([C@H](C)CO)S2(=O)=O	65.5
CC(O)CNC(=O)C1(CC2CC(c3ccc(F)cc3)=NO2)CCOCC1 (stereo not given)	3.7
(more compounds)
SMILES	Tgondii IFNg
CN1C(=O)c2cc(NC(=O)Nc3ccccc3Cl)ccc2OC[C@@H]2O[C@H](CC(=O)O)CC[C@@H]21	6.7
CC(c1ccccc1)n1c(SCC(=O)c2csc3ccccc23)n[nH]c1=O (stereo not given)	-79.2*
Cc1c(C(=O)Cn2ccnc2)sc2ccc(Cl)cc12	-18.2
COc1ccc(Nc2nnc(C)c3ccccc23)cc1C(=O)N1CCCCC1	-41.0
COC(=O)C[C@H]1CC[C@@H]2[C@H](COc3ccc(NC(=O)Nc4cccc(C#N)c4)cc3C(=O)N2C)O1	-50.6
Nc1nnc(SCC(=O)c2ccccc2)s1	22.0
COCC(=O)N1[C@H](CO)[C@@H]2c3ccccc3N(C(=O)Nc3ccccc3Cl)C[C@@H]21	3.9
Cc1nnn2c1COCC(CNCC(C)C)C2 (stereo not given)	-4.3
Cc1ccccc1C(NC(=O)COc1ccc2nsnc2c1)c1ccncc1 (stereo not given)	2.7
CC(=O)N1[C@@H](CO)[C@@H](c2ccccc2)[C@@H]1CN(CC1CCC1)C(=O)CN(C)C	-30.7
C[C@H](CO)N1C[C@H](C)[C@@H](CN(C)Cc2ccc(Cl)c(Cl)c2)Oc2c(NS(=O)(=O)c3ccc(F)cc3)cccc2C1=O	-7.8
CCN(Cc1cccnc1)C(=O)CC1C(=O)NCCN1Cc1ccc(C)o1 (stereo not given)	8.9
COc1ccc(S(=O)(=O)NCCc2sc(-c3ccc(OC)c(OC)c3)nc2C)cc1F	134.3
COCC1(C(=O)NCc2cccnc2Oc2ccc(C)nc2)CCC1	-7.9
COc1ccc(-c2nc(N3CCCC3)c3ccccc3n2)cc1	-62.7
O=C1CCCN1CC1CN(Cc2ccsc2)Cc2nccn2C1 (stereo not given)	-0.7
O=C(Nc1ccc(Cl)cc1)C1Cn2ccnc2C2(CCN(C(=O)C3CCC3)CC2)O1 (stereo not given)	48.2
O=C1Nc2ccccc2C1Cc1cccs1 (stereo not given)	35.5
CC1CCN(S(=O)(=O)c2ccc3c(c2)CCC(=O)N3CC(=O)NC2CCCCCC2)CC1	-15.2
CN1CCC(Cn2ccnc2-c2ccccc2C(=O)O)(c2ccccc2)CC1	112.8
CCc1ccc(CN(C)C(=O)c2ccc(-c3ccn[nH]3)cc2)nc1	-4.6
O=C(CCCc1nc(-c2ccc(F)cc2)no1)N1CCC(c2ccccc2)C1 (stereo not given)	-66.6
CN(Cc1ccc2nsnc2c1)Cc1cnn2cccnc12	-3.7
CC(C)SCC(=O)N1CCc2c(nc(-c3ccccc3)nc2N(C)C)C1	-26.4
O=C(NCc1scnc1-c1ccccc1)c1cn(CCN2CCCCC2)nn1	-8.5
(listing goes on)
SMILES	Tgondii IFNg
CC(C)CCNC(=O)C1CC(=O)N(CCc2c[nH]c3ccc(Cl)cc23)C1 (stereo not given)	u
COCC1c2nnn(CC3CC3)c2CCN1C(=O)N(C)C (stereo not given)	-2.4
CCOC(=O)c1ccc2[nH]c(C)c(C)c2c1	-2.8
CCOc1ccc(C(=O)NCC2(c3ccccc3)CCOCC2)cc1	-14.4
O=C(COc1ccc(F)cc1)Nc1ccc2c(c1)CCC(=O)N2	3.9
Cc1cc(C)c2c(=O)n(Cc3nc(-c4ccc(OC(C)C)cc4)oc3C)c(=O)n(C)c2n1	4.6
O=C(CN1C(=O)CCc2cc(Br)ccc21)Nc1ccc2c(c1)OCCO2	22.7
CCC(c1ccc(F)cc1)n1cc(C(=O)Nc2ccc3c(c2)N(C)C(=O)CO3)nn1 (stereo not given)	-50.0
C[C@@]12CCC3[C@@](CC[C@@H]4[C@](C)(C(=O)O)CCC[C@@]34C)(CC1=O)C2 (stereo not given in full)	-4.8
O=c1[nH]nc(CCn2cccn2)n1CC1CCCCC1	2.1
O=C(O)CS(=O)(=O)Cc1ccccc1	-0.8
COc1ccccc1CNC(=O)C[C@@H]1C=C[C@@H](NC(=O)CC2CC2)[C@H](CO)O1	-41.6
CCN1CCC2(CC1)OC(=O)C(C)=C2C(=O)NCCCN(CC)Cc1ccccc1	72.4
COc1ccc(NC(=O)C(=O)NCCc2csc(-c3cccc(F)c3)n2)cc1OC	30.7
CC(=O)NC(c1nccs1)C1CCN(C(=O)c2cccnc2C)CC1 (stereo not given)	28.8
CN(C)C[C@@H]1CCC[C@@H]2CN(Cc3nccs3)C[C@H]21	-1.3
Cc1ccc(C(=O)N2CCN(S(=O)(=O)c3cc4c5c(c3)CCN5C(=O)CC4)CC2)cc1	-49.0
CCN(CC)Cc1cn2c(n1)CN(Cc1c(C)noc1C)CC2	8.1
N#Cc1cccc(-c2ccc([C@@H]3[C@H]4CN(Cc5ccccc5F)CCCCN4[C@H]3CO)cc2)c1	-47.3
CN(C)C(=O)CN1C[C@]23CN(C(=O)c4cn(C)c5ccccc45)C[C@@H](C[C@@H]2S1(=O)=O)O3	8.4
C=CCC(=O)N(CC=C)Cc1cccc(OC)c1	1.6
COc1ccc(C2=NC3(CCN(CC(=O)Nc4cccc(Cl)c4)CC3)NC2=O)cc1	47.2

Look-ups from the list.
Result for Cc1cc(C)c2c(=O)n(Cc3nc(-c4ccc(OC(C)C)cc4)oc3C)c(=O)n(C)c2n1 in Tgondii IFNg: 4.6
Result for C=CCC(=O)N(CC=C)Cc1cccc(OC)c1 in Tgondii IFNg: 1.6

Pulled by structure from the entries so far (three):
SMILES	Tgondii IFNg
O=C(O)CS(=O)(=O)Cc1ccccc1	-0.8
Cc1ccc(C(=O)N2CCN(S(=O)(=O)c3cc4c5c(c3)CCN5C(=O)CC4)CC2)cc1	-49.0
C[C@@]12CCC3[C@@](CC[C@@H]4[C@](C)(C(=O)O)CCC[C@@]34C)(CC1=O)C2 (stereo not given in full)	-4.8

Ordered by count of non-hydrogen atoms (ascending): 7 of the compounds above
SMILES	Tgondii IFNg
O=C(O)CS(=O)(=O)Cc1ccccc1	-0.8
CCOc1ccc(C(=O)NCC2(c3ccccc3)CCOCC2)cc1	-14.4
O=C(CN1C(=O)CCc2cc(Br)ccc21)Nc1ccc2c(c1)OCCO2	22.7
COc1ccc(C2=NC3(CCN(CC(=O)Nc4cccc(Cl)c4)CC3)NC2=O)cc1	47.2
Cc1ccc(C(=O)N2CCN(S(=O)(=O)c3cc4c5c(c3)CCN5C(=O)CC4)CC2)cc1	-49.0
Cc1cc(C)c2c(=O)n(Cc3nc(-c4ccc(OC(C)C)cc4)oc3C)c(=O)n(C)c2n1	4.6
N#Cc1cccc(-c2ccc([C@@H]3[C@H]4CN(Cc5ccccc5F)CCCCN4[C@H]3CO)cc2)c1	-47.3
